fixLJ activator: increases Burkholderia fixLJ two-component signaling; B. multivorans fixK-promoter GFP reporter, 18 h; active compounds read high; 29,000 compounds, 0.3% hits; z-score (no concentration beside the values);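 active = replicate mean overnight rise in green fluorescent reporter signal, 3 or more SD over negative controls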;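 also: score is relative to vehicle wells of the plate; 300 nL library stock went into each well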
An asterisk follows results filed as active. A portion of the library (hit frequency here may not be typical).

Results for Cc1ccc(CCNC(=O)CN(c2cc(C)cc(C)c2)S(=O)(=O)c2c(C)noc2C)cc1 ?
fixLJ activator: -1.1

What do the screens show for `Cc1ccc(S(=O)(=O)c2cn(CC(=O)Nc3ccccc3C)c3cc4c(cc3c2=O)OCO4)cc1`?
fixLJ activator: -1.5

What do the screens show for `Cc1noc2nc3c(c(C(=O)N4CCN(c5ncccc5C(N)=O)CC4)c12)CCC3`?
fixLJ activator: -1

What do the screens show for `COc1ccc(Nc2cc(C(=O)NCc3cccs3)c3ccccc3n2)cc1`?
fixLJ activator: 1.6

How did CCOc1ccc(C2c3c(oc4cc(C)c(C)cc4c3=O)C(=O)N2c2ccccn2)cc1 (stereo not given) do in these assays?
fixLJ activator: -0.65

What do the screens show for `CCCc1nnc(NC(=O)Cc2coc3c(C)c(C)ccc23)s1`?
fixLJ activator: -0.75

How did CC(C)N(CC1CC1)C(=O)c1ccccc1N1CCC(=O)NC1=O do in these assays?
fixLJ activator: -0.27

How did COc1cccc(CNC(=O)CCCn2ncn3c(cc4occc43)c2=O)c1 do in these assays?
fixLJ activator: -1.5

Results for CN1CCCC2(CCCN(C(=O)c3cccn4cnnc34)C2)C1 (stereo not given) ?
fixLJ activator: -1.2

How did O=C(c1cnc(Nc2ccccc2)nc1)N1CCN(CCn2cncn2)CC1 do in these assays?
fixLJ activator: -1.1

A stretch from the list above:
How did CC(C)N(CC1CC1)C(=O)c1ccccc1N1CCC(=O)NC1=O do in these assays?
fixLJ activator: -0.27

How did COc1cccc(CNC(=O)CCCn2ncn3c(cc4occc43)c2=O)c1 do in these assays?
fixLJ activator: -1.5

Additional entries follow.
How did CCOC(=O)c1c(NC(=O)/C=C/c2ccc(C)cc2)sc(C(C)=O)c1C do in these assays?
fixLJ activator: 0.09

What do the screens show for `CCOC(=O)c1cc(OC(=O)c2ccc(OC)c(OC)c2)n(-c2ccccc2)n1`?
fixLJ activator: -1.8

What do the screens show for `CCCN1Cc2cccc(C(=O)Nc3ccccc3C(=O)OC)c2C1=O`?
fixLJ activator: 0.56

What do the screens show for `COc1ccc(CCN2C(=O)N(c3cccc(C)c3)C(=O)C2CC(=O)Nc2ccccc2)cc1OC` (stereo not given)?
fixLJ activator: -1.9

How did Nc1ccc(N2CCN(c3ncc(C(F)(F)F)cc3Cl)CC2)c(C(F)(F)F)c1 do in these assays?
fixLJ activator: -1.5

Results for CNC(=O)c1cc(NC(=O)N2CCN(S(C)(=O)=O)CC2)ccc1F ?
fixLJ activator: -0.46

What do the screens show for `C#CC(C)(CC)NC(=O)Cn1nnc(-c2ccc(OCc3ccccc3F)cc2)n1` (stereo not given)?
fixLJ activator: -3.1

What do the screens show for `COc1cc(-c2nccn2CCCn2ccnc2C(C)C)ccn1`?
fixLJ activator: 0.06

What do the screens show for `CCOc1cc(CN2CCN(S(=O)(=O)c3ccc(C)cc3)CC2)ccc1OC`?
fixLJ activator: 0.19

How did COc1ccc(NC(=O)c2c(NC(=O)COc3ccccc3)sc3c2CCC(C(C)(C)C)C3)cc1 (stereo not given) do in these assays?
fixLJ activator: -0.8

Six compounds picked at random from those above:
How did CCOC(=O)c1c(NC(=O)/C=C/c2ccc(C)cc2)sc(C(C)=O)c1C do in these assays?
fixLJ activator: 0.09

What do the screens show for `C#CC(C)(CC)NC(=O)Cn1nnc(-c2ccc(OCc3ccccc3F)cc2)n1` (stereo not given)?
fixLJ activator: -3.1

What do the screens show for `CCOc1cc(CN2CCN(S(=O)(=O)c3ccc(C)cc3)CC2)ccc1OC`?
fixLJ activator: 0.19

What do the screens show for `COc1cc(-c2nccn2CCCn2ccnc2C(C)C)ccn1`?
fixLJ activator: 0.06

Results for CNC(=O)c1cc(NC(=O)N2CCN(S(C)(=O)=O)CC2)ccc1F ?
fixLJ activator: -0.46

What do the screens show for `COc1ccc(CCN2C(=O)N(c3cccc(C)c3)C(=O)C2CC(=O)Nc2ccccc2)cc1OC` (stereo not given)?
fixLJ activator: -1.9

The results go on:
How did O=C(CSc1nc(-c2ccc(F)cc2)[nH]c1-c1ccc(F)cc1)Nc1ccc2c(c1)OCCO2 do in these assays?
fixLJ activator: 0.6

Results for Cn1nnnc1SCCNCc1ccccc1OCc1ccc(Cl)cc1Cl ?
fixLJ activator: -1.7

Results for Cc1ccn2cc(-c3ccc(C)c(NS(=O)(=O)c4ccc(Cl)cc4)c3)nc2c1 ?
fixLJ activator: -1.3

What do the screens show for `CC[C@H]1OC(=O)[C@H](C)[C@@H](O[C@H]2C[C@@](C)(OC)[C@@H](O)[C@H](C)O2)[C@H](C)[C@@H](O[C@@H]2O[C@H](C)C[C@H](N(C)C)[C@H]2O)[C@](C)(OC)C[C@@H](C)C(=O)[C@H](C)[C@@H](O)[C@]1(C)O`?
fixLJ activator: -0.52

What do the screens show for `Cc1cc(CC(=O)NCc2cccnc2N(C)CCc2ccccn2)on1`?
fixLJ activator: -0.16

How did Cc1cccc(C(=O)Nc2cc3c(cc2N2CCCCC2)n(C)c(=O)c(=O)n3C)c1 do in these assays?
fixLJ activator: 0.27

Results for Cc1c(C(=O)OC2CCC(C)CC2)[nH]c2c1C(=O)CC(c1ccccc1Cl)C2 (stereo not given) ?
fixLJ activator: -0.07

How did CCN(c1ccccc1)S(=O)(=O)c1ccc(NC(=O)c2cc(=O)c3c(C)cc(C)cc3o2)cc1 do in these assays?
fixLJ activator: -2.8

Results for CSc1ncc(Cl)c(C(=O)Nc2ccc(S(=O)(=O)N3CCCC(C)C3)cc2)n1 (stereo not given) ?
fixLJ activator: 0

What do the screens show for `CCC12CN3CC(CC)(CN(C1)C3c1c(C)[nH]c(=O)[nH]c1=O)C2=O` (stereo not given)?
fixLJ activator: -2

How did Cc1ccc(Cl)cc1NC(=O)CN1C(=O)c2cccc3cccc1c23 do in these assays?
fixLJ activator: -3

Results for CCN1C(C(=O)c2ccccc2)=C(OC(=O)COc2ccccc2)c2ccccc2S1(=O)=O ?
fixLJ activator: -2.3

What do the screens show for `CCOC(=O)c1c(NC(C)=O)c2c3c(sc2n1Cc1c(C)cc(C)cc1C)CCCC3`?
fixLJ activator: -1.7

How did COc1ccc(Nc2c(-c3ccc(C)o3)nc3cc(C)ccn23)cc1 do in these assays?
fixLJ activator: -1.1

Results for CCOc1ccc(CCNC(=O)CS(=O)Cc2nc(-c3ccc(C)cc3)oc2C)cc1OCC (stereo not given) ?
fixLJ activator: -0.41

Results for CC(C)CCNC(=O)CSc1c2c(nc3ccc(Cl)cc13)CCCC2 ?
fixLJ activator: -1.8

How did Cc1cc(=O)[nH]c(NCCNC(=O)CSc2nnc(C)s2)n1 do in these assays?
fixLJ activator: -1.1

What do the screens show for `Cc1ccc2nc(-c3ccc(NC(=O)COc4ccccc4)cc3)sc2c1`?
fixLJ activator: -0.91

Results for CCC(=O)NCc1cc2n(n1)CCN(CC(=O)NCCc1ccccc1)C2 ?
fixLJ activator: -1.4

Results for CC(C)c1ccc(NC(=O)CCNS(=O)(=O)c2ccc3c(c2)oc(=O)n3C)cc1 ?
fixLJ activator: -1.4

Results for CCOC(=O)CNC(c1ccccc1)c1cc(Br)ccc1NC(=O)c1cccc(Cl)c1 (stereo not given) ?
fixLJ activator: 2.4

Results for Cc1cccc(-n2c(-c3ccccc3)cn3c4c(=O)[nH]c(=O)n(C)c4nc23)c1 ?
fixLJ activator: 0.1

Results for COc1ccc(CCNC(=O)CCCn2c(=O)c3ccccc3n(Cc3ccccc3C)c2=O)cc1OC ?
fixLJ activator: -1.8

Results for CO[C@@H]1[C@@H](OC(N)=O)[C@H](O)[C@H](Oc2ccc3c(O)c(NC(=O)c4ccc(O)c(CC=C(C)C)c4)c(=O)oc3c2C)OC1(C)C ?
fixLJ activator: -6.1

How did Cc1c(C(=O)OC2CCCC2)[nH]c2c1C(=O)CC(c1ccc(C(C)(C)C)cc1)C2 (stereo not given) do in these assays?
fixLJ activator: -0.96

How did Cn1c(=O)oc2cc(S(=O)(=O)N3CCCC(C(=O)N4CCN(c5ccc(Cl)cc5)CC4)C3)ccc21 (stereo not given) do in these assays?
fixLJ activator: -1.1

How did CNC(=O)c1ccc(NC(=O)c2ccc(Cl)cn2)c(C)c1 do in these assays?
fixLJ activator: 1.7

Results for COc1ccccc1C(=O)NC1(C(F)(F)F)C(=O)Nc2c1c(=O)[nH]c(=O)n2CCc1ccccc1 (stereo not given) ?
fixLJ activator: -0.78

What do the screens show for `CCCCn1c(=NC(=O)c2cc3ccccc3o2)c(C(=O)OCC)cc2c(=O)n3ccccc3nc21`?
fixLJ activator: 0.48

What do the screens show for `OCC1(c2nc(Cc3cccs3)nn2-c2ccc(F)c(F)c2)CC1`?
fixLJ activator: 1.7

How did COc1ccc(S(=O)(=O)c2c(C)c(NS(=O)(=O)c3ccccc3)cc(C)c2O)cc1 do in these assays?
fixLJ activator: -0.56

Results for Cc1cc(C)n2nc(CNC(=O)c3ccccc3Cl)nc2n1 ?
fixLJ activator: 1.5

How did COc1cccc2c1OCC(Cc1ccc(C(=O)N3CCCCC3)cn1)C2 (stereo not given) do in these assays?
fixLJ activator: 0.45

What do the screens show for `CC(C)=CCN1CCc2[nH]cnc2C12CCN(C(=O)C1CCCN1)CC2` (stereo not given)?
fixLJ activator: 0.7

How did Cc1cccc(C)c1OCCCCn1c(C2CC(=O)N(c3ccc(F)cc3)C2)nc2ccccc21 (stereo not given) do in these assays?
fixLJ activator: 2.7

Results for O=C(CCc1cc(Cl)no1)NCCc1noc(-c2ccccc2)n1 ?
fixLJ activator: -1.1

What do the screens show for `Nc1c(C(=O)Nc2cccc(C(F)(F)F)c2)c2ccccn2c1C(=O)c1ccccc1`?
fixLJ activator: -1.5

How did CCCN(Cc1cccnc1)C(=O)c1cccc(C(=O)OC)c1 do in these assays?
fixLJ activator: -1.3

Results for CCOc1ccccc1N1CC(c2nc3ccccc3n2CCOc2ccc(OC)cc2)CC1=O (stereo not given) ?
fixLJ activator: -1.5

What do the screens show for `COc1ccccc1N1CCN(C(=O)CNS(=O)(=O)c2ccc(Br)s2)CC1`?
fixLJ activator: 0.68

How did COCC(=O)NCc1cc2c(nc1OC)CN(C1CCCC1)C2=O do in these assays?
fixLJ activator: 0.62

What do the screens show for `CCC(C)NC(=O)C1CCN(C(=O)c2csc(N)n2)CC1` (stereo not given)?
fixLJ activator: -1.4

How did C#CCOc1ccc(-c2nnc(Nc3ccc(NC(C)=O)cc3)c3ccccc23)cc1 do in these assays?
fixLJ activator: -1.4

What do the screens show for `COc1cc(-c2cccc(C(=O)N(CCO)CCO)c2)nc(OC)n1`?
fixLJ activator: -2.3

How did N#C/C(=C\c1ccc(-c2ccc(C(=O)O)cc2)o1)c1nc2ccccc2[nH]1 do in these assays?
fixLJ activator: 2.1

How did C[C@@]1(C(=O)O)CCCN1C(=O)c1ccc(-n2cnnn2)cc1O do in these assays?
fixLJ activator: -2.2

How did CCCCn1c(NCc2cc(Br)ccc2O)nc2ccccc21 do in these assays?
fixLJ activator: 1

How did Cc1c(Cl)cccc1NS(=O)(=O)c1ccc2[nH]cc(C(=O)NC3CCCC3)c(=O)c2c1 do in these assays?
fixLJ activator: 0.21

How did N=C(N)c1ccc(OCCCCCOc2ccc(C(=N)N)cc2)cc1 do in these assays?
fixLJ activator: -0.95

How did CN1CCc2nc3sc(C(=O)Nc4c(F)cccc4F)c(N)c3cc2C1 do in these assays?
fixLJ activator: 2.4

What do the screens show for `Cc1cc(Cl)ccc1-n1c(CCC(=O)O)ccc1-c1cccs1`?
fixLJ activator: -2.2

How did COc1cccc(C(=O)NC(=O)Nc2ccc(-n3nc(C(F)(F)F)cc3C(F)(F)F)cc2)c1 do in these assays?
fixLJ activator: -2.8

Results for CC1CCc2c(sc3nnn(CCCCOc4ccc(Cl)cc4)c(=O)c23)C1 (stereo not given) ?
fixLJ activator: 1.8

How did O=C(CCc1cc2n(n1)CCNC2)Nc1cc(F)c(O)cc1F do in these assays?
fixLJ activator: -1

What do the screens show for `Cc1cc(OCC(=O)Nc2ncn[nH]2)ccc1Cl`?
fixLJ activator: -1.1

How did Cn1ccnc1-c1ccc(C(=O)N2CCN(Cc3ccccn3)CC2)cc1 do in these assays?
fixLJ activator: -0.8

Results for Cc1cc(NC(=O)C2CCCN(S(=O)(=O)c3ccc(Br)s3)C2)ccc1Br (stereo not given) ?
fixLJ activator: -1.1

How did CCc1ccc(OCC(=O)NCc2nc(-c3cccc(C)c3)no2)c(Br)c1 do in these assays?
fixLJ activator: -2

Results for O=C(CCc1nc(-c2ccccc2F)no1)Nc1cccc(C(F)(F)F)c1 ?
fixLJ activator: 0.14

Results for Cc1cccc(CN2CCC(CNc3ncnc4onc(-c5ccc(Cl)cc5)c34)CC2)c1 ?
fixLJ activator: -0.33

What do the screens show for `Cc1cc(C)n(CC(C)n2ccnc2-c2ccc(-c3ccn[nH]3)o2)n1` (stereo not given)?
fixLJ activator: 0.58

What do the screens show for `COCc1noc(CNC(=O)c2ccc(NC(C)=O)cc2Cl)n1`?
fixLJ activator: -0.97

What do the screens show for `CCOC(=O)C1CCCN(C(=O)Cn2ncc3c(C)n(Cc4ccccc4Cl)c(C)c3c2=O)C1` (stereo not given)?
fixLJ activator: -0.67

What do the screens show for `CCn1cc(C(=O)NCCc2ccc(OC)c(OC)c2)c(=O)c2cc(S(=O)(=O)N(C)C3CCCCC3)ccc21`?
fixLJ activator: -0.23

What do the screens show for `CCc1ccc(C(=O)COC(=O)C(Cc2c[nH]c3ccccc23)NC(=O)c2ccc(Br)cc2)cc1` (stereo not given)?
fixLJ activator: 0.58

How did Cc1cc(C)c2c(n1)nn1c(C)c(CCC(=O)Nc3ccc(C)c(Cl)c3)c(C)nc21 do in these assays?
fixLJ activator: -0.46

Results for O=C(NCc1nnnn1-c1ccccc1)c1cnoc1-c1ccccc1 ?
fixLJ activator: -0.28

How did CC(C)Cn1c(-c2ccc(S(=O)(=O)N3CCCC3)cc2)csc1=Nc1ccccc1 do in these assays?
fixLJ activator: -2.1

Results for Cc1ccc(C(=O)NCCC(=O)Nn2c(C)cc(C)cc2=O)cc1 ?
fixLJ activator: -3.1

Results for O=C(Cn1c(=O)n(-c2ccc(Cl)cc2)c(=O)c2sc3ccccc3c21)NC1CCCC1 ?
fixLJ activator: 0.2

How did CCOC(=O)c1cc(OC(=O)c2cc(OC)c(OC)c(OC)c2)n(-c2ccccc2)n1 do in these assays?
fixLJ activator: -2.8

Bioassay records (PubChem)
